# Source: PubChem BioAssay
# UCH37 DUB inh = inhibitors of human deubiquitinating enzyme UCH37. actives 0.33% (n = 330,000). Q9Y5K5. purified proteasome/UCH37, Ub-AMC cleavage fluorescence. AID 588478. inhibition, % (no concentration beside the values);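 active = mean of two replicates above 20%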;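 note: 0% = compound-free wells with enzyme and 100% = wells lacking proteasome; stock transfer was 100 nL into about 20 µL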
#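 assay system = human UCH37 enzyme supplied as purified proteasome complex | amount = proteasome at 0.15 nM in the dispensed enzyme solution | schedule = 30 min compound-proteasome preincubation then 25 min substrate reaction, room temperature | measured by = fluorescence, ex 355 nm, em 460 nm | benchmarks = no-proteasome wells (full inhibition) and compound-free wells (no inhibition)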
# B2AR ag = human beta-2 adrenergic receptor agonism by FAP. Am2.2-beta2AR cells, FAP receptor internalization, flow cytometry; reference of the scale not given here. actives 0.43% (n = 340,000). AID 504454. response, % (concentration not given with the values);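 active = response above a set limit, near 3 SD of response in nonfluorescent compounds, cut at about 42% in these data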;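 note: stock transfer was 100 nL into about 11 µL; a reference agonist was the positive control; negative values mostly stem from fluorescent compounds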
# Ecoli rRNA inh = inhibits bacterial ribosomal RNA function over humanized ribosomes. E. coli WT GFP vs humanized-ribosome RFP mutants, fluorescence, 24 h; stronger effect = lower value; DMSO median 0, no signal -100. GFP signal change (wild-type ribosome), % (concentration not given with the values). actives 1.6% (n = 350,000);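 active = significant combined selectivity score with lowered wild-type GFP, culture density cut under 30%, mutant RFP and density less affected; inactive = any of these conditions unmet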; note: one replicate is shown; some compounds called inactive have numbers as strong as hits
# HNF4A DNA FP = change in binding of human HNF4 alpha to DNA; P41235; HNF4a-FITC DNA binding, fluorescence polarization, 1 h; activity change, % at 10 µM; actives 0.3% (n = 360,000); AID 1224865; in the data active = activity change above about 30%, passing the limit was not always enough;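 note: controls were the assay level and a saturating level of protein; the project sought stronger binding though the title names inhibitors; some compounds called inactive have numbers as strong as hits; positive values seem to mean higher polarization but the record does not say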
# Target sequence (P41235 whole entry, looked up): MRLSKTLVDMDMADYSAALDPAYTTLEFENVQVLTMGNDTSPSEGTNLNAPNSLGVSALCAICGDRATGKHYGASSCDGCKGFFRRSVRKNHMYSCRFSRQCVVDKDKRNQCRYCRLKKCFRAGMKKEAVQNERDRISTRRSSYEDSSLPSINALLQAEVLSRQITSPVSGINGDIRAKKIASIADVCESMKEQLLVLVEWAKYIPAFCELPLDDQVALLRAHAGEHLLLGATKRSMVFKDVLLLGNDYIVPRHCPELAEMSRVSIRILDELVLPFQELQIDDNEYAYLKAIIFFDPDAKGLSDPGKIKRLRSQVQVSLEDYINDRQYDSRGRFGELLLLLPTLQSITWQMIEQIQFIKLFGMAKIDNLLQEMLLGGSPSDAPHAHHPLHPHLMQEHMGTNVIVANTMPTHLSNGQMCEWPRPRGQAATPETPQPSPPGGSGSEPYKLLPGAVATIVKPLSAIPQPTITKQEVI
# E coli growth = blocks Escherichia coli growth. OD600, 23 h; stronger effect = lower value. OD600 absorbance (test concentration not listed). actives 0.21% (n = 330,000). AID 1053175;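 active = OD600 absorbance below the run mean of sample wells minus 3.6 SD, in any replicate, cut at about 0.56 in these data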;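 note: stock transfer was 300 nL into about 60 µL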
# ALR inh = human ALR oxidase inhibition via reduced H2O2; P55789; purified ALR, DTT oxidation, H2O2 HRP-luminol luminescence; inhibition, % (concentration not given with the values); actives 3.8% (n = 290,000); AID 485317;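 active = mean and each replicate at 75% or more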;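 note: stock transfer was 7.5 nL into about 7.5 µL; 0% = neutral wells and 100% = wells with inactivated enzyme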
# Target sequence (P55789 whole entry, looked up): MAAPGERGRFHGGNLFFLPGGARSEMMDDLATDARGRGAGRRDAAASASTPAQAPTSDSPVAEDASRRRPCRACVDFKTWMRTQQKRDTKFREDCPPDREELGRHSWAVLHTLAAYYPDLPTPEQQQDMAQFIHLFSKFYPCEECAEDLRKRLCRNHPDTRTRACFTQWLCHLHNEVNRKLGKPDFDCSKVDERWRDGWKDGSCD
# FGF22 binding = FGF22 (human) thermal shift binding; calls only at 9.99 µM; AID 651658; actives 1.5% (n = 340,000); Q9HCT0; recombinant FGF22 thermal shift, SYPRO orange fluorescence; percent of sucrose octasulfate shift, DMSO zero;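 active = melting point raised past a set limit in the mean and every replicate; three in four hits are not shown here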
# Target sequence (Q9HCT0 whole entry, looked up): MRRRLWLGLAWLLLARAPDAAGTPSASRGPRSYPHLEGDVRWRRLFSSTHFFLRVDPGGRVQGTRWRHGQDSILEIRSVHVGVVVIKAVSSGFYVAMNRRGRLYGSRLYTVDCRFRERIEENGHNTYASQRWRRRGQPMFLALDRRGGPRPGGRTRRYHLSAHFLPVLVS
# Ecoli rRNA inh OD600 = second read-out of Ecoli rRNA inh, no call of its own (marks repeat the call); OD600 change, %; measured here: OD600 growth;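 optical density of the mix in the first replicate; 0 = DMSO median and -100 = no signal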
# Ecoli rRNA inh RFP = recorded beside Ecoli rRNA inh, whose call it bears; RFP signal change, %; measured here: RFP humanized mutant strains;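 first replicate; 0 = DMSO median and -100 = no signal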
# * = called active by the depositor; i = inactive; . = no result given.
SMILES,UCH37 DUB inh,B2AR ag,Ecoli rRNA inh,Ecoli rRNA inh OD600,Ecoli rRNA inh RFP,HNF4A DNA FP,E coli growth,ALR inh,FGF22 binding
COc1ccc(C(=O)/C=C/C(=O)N(CC(=O)NC2CCCCC2)Cc2ccccc2)c(O)c1,-0.4,111*,-3,-7,-2.6,-6.3,0.71,.,i
CCOc1ccc(NC(=O)c2ccc3nccnc3c2)cc1,4.1,-2,.,.,.,-2.8,0.68,-4,.
Nc1ncnc2c(C3OC(CO)C(O)C3O)c[nH]c12 (configuration not stated),.,-4,20,19,-1.1,-1.8,.,.,.
Cc1csc(SCCn2c(N3CCCC3)nc3c2c(=O)[nH]c(=O)n3C)n1,4.0,11,.,.,.,-1.3,0.69,2,.
Cc1ccc(NC(=O)COC(=O)C2(CC(=O)NC(C)C)CCCC2)cc1C,2.7,1,-12,-16,6.6,-0.1,0.67,2,i
Cc1cc(-c2ccc3ccccc3c2)n2ncnc2n1,i,13,12,9,2.5,9.3,0.68,-3,i
Cc1cc(S(=O)(=O)N2CCOCC2)ccc1OCC(=O)NCc1ccco1,0.9,7,3,14,2.0,2.8,0.63,1,i
CC(C)(C)C(=O)NC(=S)Nc1ccc(F)cc1,5.1,-5,4,15,-14,-1.9,0.69,3,i
COc1ccc(OC)c(C(=O)COC(=O)CNC(=O)C2CCCCC2)c1,-3.1,9,.,.,.,2.9,0.69,.,.
CCOc1ccccc1NC(=S)N(CCN(C)C)C(C)c1ccncc1 (configuration not stated),1.3,-11,5,-6,-4.0,-0.2,0.69,-3,i
COc1ccc(NC(=O)c2sc3ncn(CC(=O)N4CCN(c5ccccn5)CC4)c(=O)c3c2C)cc1OC,2.5,3,-3,-8,-3.6,-9.0,0.69,-12,i
COc1ccc(N=C2SC(CC(=O)Nc3ccccc3F)C(=O)N2Cc2ccco2)cc1 (configuration not stated),3.8,-9,.,.,.,1.0,0.76,-14,.
Cc1ccc(NC(=S)N/N=C2\CC(C)(C)Oc3ccc(O)cc32)cc1,.,-6,-2,7,-4.0,2.2,.,-6,i
Cc1ccc(NC(=O)Cn2cnc3c(NCc4ccccc4)ncnc32)cc1C,-0.2,-4,11,13,2.3,-0.7,0.74,.,i
CCc1nnc(NC(=O)CSc2nc3cc4c(cc3cc2C)OCCO4)s1,2.5,7,.,.,.,2.9,0.72,-66,.
O=C(OCC(=O)N1CCCc2ccccc21)c1ccccc1[N+](=O)[O-],.,-5,-2,-4,1.2,4.1,.,8,i
COCCNC(=O)C(c1ccc(O)cc1)N(Cc1ccccc1)C(=O)CCC(=O)Nc1ccccn1 (configuration not stated),2.8,-5,1,5,-2.3,-2.1,0.68,-3,i
CCOc1cc(/C=N/N=C2/NC(=O)C(CC(=O)O)S2)ccc1OCc1ccc(Cl)cc1Cl (configuration not stated),.,-5,.,.,.,-1.5,.,10,.
O=C(Nc1ccc(F)cc1)Nc1nnc(Cc2ccccc2F)s1,5.1,-3,2,0,0.2,-1.8,0.67,-6,i
Cc1ccc(NC(=O)CSCc2nc3c(nnn3Cc3ccc(F)cc3)c(=O)[nH]2)c(C)c1,1.8,8,-5,-6,-0.9,-2.3,0.7,-4,.
CCN(CC)c1ccc(C2Nc3cccc4cccc(c34)N2)cc1,.,17,-64,54,-26,4.2,.,-22,i
COc1ccc(CCN(C)C(=O)c2c(C)noc2C)cc1OC,4.4,-7,11,10,-1.1,-1.4,0.66,3,i
CNC(=O)c1c(NC(=O)CCS(=O)(=O)c2ccc(F)cc2)sc(C)c1C,.,-7,8,10,2.5,-0.2,.,.,i
CCN(CC)c1nc2c(c(=O)n(C)c(=O)n2C)n1CC(=O)c1ccccc1,3.9,-2,1,4,4.5,-2.2,0.68,-1,i
COC(=O)c1sc(NC(=O)C2CCCCC2C(=O)O)c(C(=O)OC)c1C (configuration not stated),2.4,8,.,.,.,-0.5,0.65,2,.
Cc1ccc(C)c(S(=O)(=O)N2CCCOC2CNC(=O)C(=O)NC2CC2)c1 (configuration not stated),3.6,1,6,11,-0.8,0.7,0.69,-6,i
CCOC(=O)c1ccc(N2C(=O)CC(N3CCC(C(=O)OCC)CC3)C2=O)cc1 (configuration not stated),1.4,3,.,.,.,0.0,0.71,-4,.
Cc1ccc(-c2ccc(SCC(=O)Nc3cc(C)on3)nn2)cc1,2.2,6,5,9,1.0,-2.0,0.67,-4,i
Cc1ncccc1C(=O)N1CCCC(CNC(=O)C2(c3ccc(Cl)cc3)CC2)C1 (configuration not stated),2.0,-3,3,1,-6.2,-1.2,0.68,.,i
CCOC(=O)c1cnc(Nc2ccc(OCC)cc2)nc1C,2.2,-6,.,.,.,1.1,0.72,-6,.
COC(=O)CN1C(=S)N(c2ccc(Cl)cc2)C(=O)C1CC(=O)Nc1ccc(Cl)cc1 (configuration not stated),-3.6,5,.,.,.,-0.2,0.71,.,.
Cc1ccc(-c2nc(CN(Cc3c(C)nn(C)c3C)C(C)C)c(C)o2)o1,-27,8,19,16,1.0,0.7,0.7,-3,i
CC(/C=N/NC(=O)c1cc(C(C)(C)C)[nH]n1)=C\c1ccccc1,.,14,.,.,.,-1.3,.,3,.
CN(C)C(=O)c1ccc(NC(=O)c2cc(-c3ccco3)nc3ccccc23)cc1,-106,8,-4,0,1.3,-15,0.7,39,i
O=C1N/C(=N\N=C\c2cccnc2)SC1Cc1ccc(SC(F)F)cc1 (configuration not stated),.,2,.,.,.,4.8,.,-9,.
O=c1ccc2ccccc2c2ccccc12,.,.,-54,-72,-20,2.7,.,.,i
CCCC(=O)N1CCC(Cc2ccccc2)CC1,6.4,0,10,0,-0.5,0.6,0.75,-3,i
COc1cccc(NC(=O)N2CCN(c3cccc(C)c3C)CC2)c1,3.3,10,.,.,.,-1.7,0.71,.,.
COCCNC(=O)NC(=O)COC(=O)c1ccc2[nH]c3c(c2c1)CCCC3,-3.9,-1,5,7,-0.8,5.8,0.66,-11,i
O=C(CSc1nnc(SCc2cccc3ccccc23)s1)Nc1ccc(C(=O)O)cc1,2.6,7,-28,-32,-3.3,-1.6,0.67,98*,i
Cc1ccc(C(=O)N2CCN(c3ccc([N+](=O)[O-])cc3)CC2)o1,6.2,-5,-8,-3,0.6,4.7,0.71,-5,i
O=c1[nH][nH]c(-c2ccccc2)c1C=Nc1cccc(Cl)c1,2.4,-13,.,.,.,0.0,0.66,.,.
N#Cc1c(NC(=O)COC(=O)C2=COCCO2)sc2c1CCCC2,.,.,-3,-38,6.1,-3.3,.,.,i
C=C(C)CSc1nnc2n(Cc3ccccc3)c(=O)c3c4c(sc3n12)CCC4,.,-4,.,.,.,0.7,0.72,.,.
O=C(COC(=O)CCN=C1NS(=O)(=O)c2ccccc21)NNC(=O)c1ccc(Cl)cc1,2.4,-1,9,18,0.9,2.8,0.69,19,i

# Part of the list above, with each value named:
C=C(C)CSc1nnc2n(Cc3ccccc3)c(=O)c3c4c(sc3n12)CCC4
  UCH37 DUB inh: .	B2AR ag: -4	Ecoli rRNA inh: .	Ecoli rRNA inh OD600: .	Ecoli rRNA inh RFP: .	HNF4A DNA FP: 0.7	E coli growth: 0.72	ALR inh: .	FGF22 binding: .
O=c1[nH][nH]c(-c2ccccc2)c1C=Nc1cccc(Cl)c1
  UCH37 DUB inh: 2.4	B2AR ag: -13	Ecoli rRNA inh: .	Ecoli rRNA inh OD600: .	Ecoli rRNA inh RFP: .	HNF4A DNA FP: 0.0	E coli growth: 0.66	ALR inh: .	FGF22 binding: .
Cc1ccc(C(=O)N2CCN(c3ccc([N+](=O)[O-])cc3)CC2)o1
  UCH37 DUB inh: 6.2	B2AR ag: -5	Ecoli rRNA inh: -8	Ecoli rRNA inh OD600: -3	Ecoli rRNA inh RFP: 0.6	HNF4A DNA FP: 4.7	E coli growth: 0.71	ALR inh: -5	FGF22 binding: i

# Next section:
SMILES,UCH37 DUB inh,B2AR ag,Ecoli rRNA inh,Ecoli rRNA inh OD600,Ecoli rRNA inh RFP,HNF4A DNA FP,E coli growth,ALR inh,FGF22 binding
CCC(C)Sc1nc2c([nH]c3ccccc32)c(=O)n1C (configuration not stated),3.3,19,6,9,-0.8,-2.2,0.75,-9,i
COc1ccc(-c2cc(C(F)(F)F)n3nc(C(=O)N4CCCC4)cc3n2)cc1,-38,-8,.,.,.,-4.1,0.79,0,.
COc1ccc(N2CC(NC(=O)N3CCc4ccccc43)CC2=O)cc1OC (configuration not stated),2.7,3,2,-1,-3.9,2.1,0.69,-12,i
CC(NS(=O)(=O)c1ccc(F)cc1)C(c1cccs1)N1CCN(C)CC1 (configuration not stated),1.0,-4,.,.,.,-2.9,0.64,-12,.
COc1ccc(NC(=O)CSc2nnc(CN3CCOCC3)n2-c2ccccc2)cc1Cl,4.2,11,.,.,.,0.4,0.65,-2,.
CCC1=NN(C(=O)Cc2ccc([N+](=O)[O-])cc2)C(O)(C(F)(F)F)C1 (configuration not stated),-1.0,5,1,12,0.5,1.0,0.66,-4,i
O=C(COC(=O)/C=C/c1ccc(F)cc1)NC1CCS(=O)(=O)C1 (configuration not stated),-0.5,1,8,12,-2.4,-6.0,0.68,.,i
O=C(CC1COc2ccccc2O1)Nc1ccccn1 (configuration not stated),0.6,-1,.,.,.,0.9,0.76,-2,.
CC(=O)Nc1ccc2nc(SCC(=O)Nc3ccc(N4CCOCC4)c(Cl)c3)sc2c1,1.4,0,.,.,.,1.2,0.67,-5,.
COC(=O)COc1ccc(C2NC(=O)NC(c3ccccc3)=C2C(C)=O)cc1Br (configuration not stated),2.2,4,-6,-5,-5.7,-1.9,0.69,-12,i
O=C(NCc1ccccc1)c1ncn[nH]1,-2.0,-5,12,5,1.1,2.8,0.68,0,i
COc1ccc(-c2csc(NC(CO)c3nc4ccccc4n3CCOCCO)n2)cc1 (configuration not stated),-1.9,0,1,-10,6.3,0.3,0.68,35,i
COc1ccc(N/N=C(/C#N)S(=O)(=O)C(C)(C)C)cc1,.,-2,1,1,0.4,-1.1,.,98*,i
O=C(N/N=C/c1c[nH]c2ccccc12)c1ccc(Br)cc1,.,6,0,8,-8.0,1.5,.,10,i
Nc1nc(COc2ccc3ccccc3c2)cs1,1.7,8,.,.,.,-3.9,0.63,-34,.
COc1ccc(NC(=O)CN(C)C(=O)c2cccc(-n3cccc3)c2)cc1,-2.7,-6,4,3,1.9,26,0.63,9,.
CC(C)(C)c1cc(NC(=O)COC(=O)c2ccccc2O)n(-c2ccccc2)n1,.,.,0,-38,27,-2.2,.,.,i
CCOc1ccc(OCC)c(NC(=O)c2[nH]c(C)c(C(C)=O)c2C)c1,-6.4,-6,.,.,.,2.5,0.7,-21,.
O=C(Nc1nnc(C2CC2)s1)c1cc(S(=O)(=O)N2CCCCC2)ccc1N1CCOCC1,2.8,-1,-4,-17,1.9,0.6,0.68,.,i
COc1nc(OC)nc(N2CCC(C(=O)Nc3cccc4ccccc34)CC2)n1,4.3,3,-2,-8,3.8,5.3,0.69,-30,.
COc1ccc(OC)c(S(=O)(=O)NC(C)(C)C)c1,3.1,-4,.,.,.,0.2,0.7,3,.
CC(C(=O)O)N1C(=O)CSc2ncccc21 (configuration not stated),.,10,.,.,.,0.3,.,-5,.

# Three entries already listed, ordered by SMILES length, highest first:
SMILES,UCH37 DUB inh,B2AR ag,Ecoli rRNA inh,Ecoli rRNA inh OD600,Ecoli rRNA inh RFP,HNF4A DNA FP,E coli growth,ALR inh,FGF22 binding
O=C(Nc1nnc(C2CC2)s1)c1cc(S(=O)(=O)N2CCCCC2)ccc1N1CCOCC1,2.8,-1,-4,-17,1.9,0.6,0.68,.,i
COc1nc(OC)nc(N2CCC(C(=O)Nc3cccc4ccccc34)CC2)n1,4.3,3,-2,-8,3.8,5.3,0.69,-30,.
COc1ccc(OC)c(S(=O)(=O)NC(C)(C)C)c1,3.1,-4,.,.,.,0.2,0.7,3,.

# These rows are one share of the data; rates above refer to the full screens.
